# PV pol inh – inhibitors of poliovirus RNA polymerase binding and polymerization; P03300; 150,000 tested, 0.66% active; % elongation, % (compound at 16.7 µg/mL); poliovirus polymerase elongation, fluorescence polarization; stronger effect = lower value; in the data active = % elongation below about 90%; note: some results filed as inactive read as strong as hits
# Target sequence (P03300 1749-2209 limits assumed): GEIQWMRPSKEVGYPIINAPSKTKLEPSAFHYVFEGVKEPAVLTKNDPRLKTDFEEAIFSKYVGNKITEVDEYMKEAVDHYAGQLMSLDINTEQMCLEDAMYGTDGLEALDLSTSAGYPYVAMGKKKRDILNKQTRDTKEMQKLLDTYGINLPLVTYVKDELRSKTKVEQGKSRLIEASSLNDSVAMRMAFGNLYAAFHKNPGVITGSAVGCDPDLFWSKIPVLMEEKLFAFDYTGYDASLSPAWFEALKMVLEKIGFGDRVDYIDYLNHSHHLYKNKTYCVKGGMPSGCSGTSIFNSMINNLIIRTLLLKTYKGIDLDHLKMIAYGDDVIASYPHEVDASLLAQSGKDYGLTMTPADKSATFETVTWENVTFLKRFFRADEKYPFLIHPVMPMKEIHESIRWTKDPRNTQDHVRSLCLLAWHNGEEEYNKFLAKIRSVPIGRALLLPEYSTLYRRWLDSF
# PV pol inh intensity – second read-out of PV pol inh, no call of its own (marks repeat the call); % elongation; measured here: total intensity read-out; formula for this scale not given here;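 total fluorescence in place of polarization; lower means less elongation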
# * = called active by the depositor. Some of the compounds tested (hit frequency here may not be typical).
SMILES,PV pol inh,PV pol inh intensity
CC(C)(C)c1ccc(OCC(=O)N(Cc2ccco2)Cc2ccccc2F)cc1,105,109
CCOC(=O)c1c(C)oc2nc(C)nc(NCc3ccccc3OC)c12,104,102
Cc1nc2cccnc2n1C1CCN(S(=O)(=O)c2ccc(Cl)cc2)CC1,108,114
CC(C)c1ccc(NC(=O)CSc2ncc3c(n2)-c2ccccc2N(C)S3(=O)=O)cc1,102,100
COC(=O)c1cc(Nc2nc3ccccc3nc2NS(=O)(=O)c2ccc(C)cc2)ccc1Cl,112,124
Cc1ccc(NC(=O)CSc2nc(-c3ccco3)cc(C(F)(F)F)n2)cc1C,103,105
CN(C)CCN(Cc1ccccc1)S(=O)(=O)c1csc(C(N)=O)c1,107,102
CCCCc1ccc(NC(=O)c2ccc(=O)n(Cc3cccc(C)c3)c2)cc1,107,108
O=C(Nc1ccc2c(c1)OCO2)c1cccn(Cc2ccc(F)cc2)c1=O,104,103
CCCN(CCC)CCCNC(=O)C1CCN(S(=O)(=O)CC)CC1,100,94

# One compound at a time, from the list above:
# CCOC(=O)c1c(C)oc2nc(C)nc(NCc3ccccc3OC)c12 is listed as PV pol inh = 104; PV pol inh intensity = 102
# O=C(Nc1ccc2c(c1)OCO2)c1cccn(Cc2ccc(F)cc2)c1=O is listed as PV pol inh = 104; PV pol inh intensity = 103
# CC(C)(C)c1ccc(OCC(=O)N(Cc2ccco2)Cc2ccccc2F)cc1 is listed as PV pol inh = 105; PV pol inh intensity = 109

# (next part)
SMILES,PV pol inh,PV pol inh intensity
COc1ccc(CNC(=O)c2ccc3c(Cl)c4c(nc3c2)CCCC4)c(OC)c1,107,108
CCC1=C(c2ccc(C)cc2)S(=O)(=O)N=C1N1CCC(C(=O)Nc2ccccc2C(=O)OC)CC1,107,114
CC(C)Cn1c(=O)c2sccc2n2c(CCCC(=O)NC3CCCCC3)nnc12,115,119
O=C(NCc1cccs1)c1nn(-c2ccccc2Cl)nc1CO,112,111
COC(=O)c1cc(NC(=O)c2cc3sccc3n2Cc2ccc(Cl)cc2)cc(C(=O)OC)c1,107,109
CCOc1ccccc1NS(=O)(=O)c1c(-c2ccc(C)cc2)csc1C(=O)OC,108,110
COc1ccccc1CNc1nc2ccccc2c2nc(-c3cccc(C)c3)nn12,101,105
Cc1ccc(NC(=O)Cn2nc(C)c3nn(-c4ccc(Cl)cc4)c(C)c3c2=O)cc1C,114,119
CCOc1ccc2nc(N3CCCC(C(=O)Nc4ccccc4CC)C3)sc2c1 (stereo not given),106,110
O=C(NCCc1ccccc1)c1ccc(CSc2nc3cccnc3n2Cc2ccccc2)cc1,110,115
COc1ccc(NC(=O)CCCN2C(=O)CCn3nc(-c4cn(C)c5ccccc45)cc32)cc1OC,107,109
CCOC(=O)c1cc2c(=O)n3ccccc3nc2n(C)c1=NC(=O)c1c(-c2ccccc2Cl)noc1C,105,98
Cc1nc2nc(SCC(=O)NCc3ccccc3)nn2c(C)c1Cc1ccccc1Cl,105,97
CCOc1ccc(NC(=O)c2oc3ccccc3c2NC(=O)Cc2cccs2)cc1,105,109
COc1ccc(S(=O)(=O)Nc2cccc(-c3ccc(N4CCOCC4)nn3)c2)cc1F,108,112
CCCN1CCN(CCCNC(=O)c2cc3c(Cl)nc4ccccc4c3s2)CC1,67*,86*
O=C(CSc1oc(-c2ccc(F)cc2)nc1S(=O)(=O)c1ccc(Cl)cc1)c1ccccc1,106,109
Cc1cc(C)cc(NC(=O)CN(c2cc(C(F)(F)F)ccc2Cl)S(=O)(=O)c2ccccc2)c1,108,109
CC(=O)Nc1nonc1-c1nnc(SCC(=O)N(C)c2ccccc2)n1C,106,107
COc1ccc(-c2[nH]c(-c3ccccc3)nc2SCC(=O)Nc2ccc3c(c2)OCO3)cc1,110,111
CCN(CC)S(=O)(=O)c1ccc(C(=O)NCCSc2c(-c3ccc(OC)cc3)[nH]c3ccccc23)cc1,106,103
COc1cccc(-c2nn(C)c3sc(C(=O)NCc4ccc(OC)cc4OC)cc23)c1,107,108
CCOc1ccccc1CNC(=O)c1cc2c(=O)n(Cc3ccccc3)ccc2nc1C,104,99
COc1ccccc1NC(=O)CSc1nnc(NC(=O)NC2CCCCC2)s1,110,112
CCOC(=O)CN1C(=O)c2cccnc2Oc2ccccc21,104,104
COc1ccc(NC(=O)c2oc3ccccc3c2NC(=O)C2CCCCC2)c(OC)c1,105,105
CCOC(=O)CSC1=Nc2ccccc2C2=NC(CCC(=O)NCc3ccc(OC)cc3)C(=O)N12 (stereo not given),103,108
CCOc1cccc2cc(-c3nc4sc5c(c4c(=O)[nH]3)CCC(C)C5)c(=O)oc12 (stereo not given),109,104
COc1ccc(C(=O)Nc2nnc(S(=O)(=O)N3CCCc4ccccc43)s2)cc1,107,106
Cc1ccc(S(=O)(=O)c2nc(-c3cccs3)oc2N2CCC(C)CC2)cc1,105,109
CCOc1ccc(NS(=O)(=O)c2c(C)nc3sc(C)c(C)n3c2=O)cc1,107,104
Cc1ccc(CN(C(=O)c2ccc(C(C)(C)C)cc2)c2ccccn2)o1,103,105
COc1ccc2c(c1)CCc1c(C(=O)Nc3ccccc3C(F)(F)F)noc1-2,107,99
CCN(CC)C(=O)c1sc2c(c1C)c(=O)n(Cc1ccccc1)c(=O)n2Cc1ccc(Cl)cc1,107,102
Cc1cccc(OC(C)C(=O)N2CCC(c3nc4ccccc4o3)CC2)c1C (stereo not given),103,108
CCOC(=O)c1cc(-c2ccccc2)n(-c2cccc(C(=O)Nc3cccc(C)c3)c2)c1C,108,99
Cc1ccc(C)c(N2CCN(CCCNC(=O)Nc3cc(Cl)ccc3C)CC2)c1,104,103
CC(C)c1ccc(OC(=O)c2cc(-c3ccccc3)on2)cc1,105,94
CN(Cc1ccccc1)c1ccc(-c2nc(-c3ccncc3)no2)cc1[N+](=O)[O-],106,108
Cc1cc(C)cc(NC(=O)c2cc(S(=O)(=O)N3CCCC3)ccc2F)c1,102,103
COc1ccc(C2CC(=O)Nc3c2c(C)nn3-c2nncc(-c3ccc(C)cc3)n2)c(OC)c1OC (stereo not given),105,101
O=C(CCc1nc2cccnc2n1Cc1cccs1)Nc1cccc(Cl)c1,103,122
O=C(Nc1ccc2nc(SCC(=O)N3CCc4ccccc43)sc2c1)c1ccc(F)cc1,109,114
Cc1csc2nc(COC(=O)c3ccccc3NC(=O)c3cccc(Br)c3)cc(=O)n12,108,114
Cc1ccc(CSC2=Nc3ccccc3C3=NC(CC(=O)NCc4cccs4)C(=O)N23)c(C)c1 (stereo not given),104,106
COc1ccc(-n2c(=O)c3c4c(sc3n(C)c2=O)CN(C(C)=O)CC4)cc1,105,107
CCc1nn2c(=O)cc(COC(=O)c3ccc(NC(=O)COc4ccccc4C)cc3)nc2s1,113,109
COc1ccc(NC(=O)CC2C(=O)N(c3ccc(C)cc3)C(=O)N2C2CCCCC2)cc1 (stereo not given),102,105
CCn1cc(C(=O)NCc2ccccc2)c(=O)c2cc(S(=O)(=O)N3CCOCC3)ccc21,101,100
O=C1C2=C(Nc3ccccc3SC2c2ccc(Cl)c(Cl)c2)c2ccccc21 (stereo not given),112,110

# More entries.
SMILES,PV pol inh,PV pol inh intensity
O=C(C1CCCN(S(=O)(=O)c2cccs2)C1)N1CCN(c2ccccc2F)CC1 (stereo not given),110,109
CC(C(=O)Nc1cccc(C#N)c1)n1nc(-c2ccccc2)c2c(c1=O)CCCC2 (stereo not given),111,115
Cc1cccc(C(=O)Nc2ccc(C(=O)OCc3cc(=O)n4c(C)csc4n3)cc2)c1,103,100
COc1ccc(OC)c(CCNC(=O)CCc2cn(Cc3cc(C)ccc3C)c3ccccc23)c1,105,105
COc1ccc(Nc2cc(C(=O)NCCCN3CCN(c4ccc(OC)cc4)CC3)c3ccccc3n2)cc1,110,109
CCCCc1nn2c(=O)cc(COC(=O)c3ccc(NC(=O)c4ccccc4Cl)cc3)nc2s1,107,109
COc1cc(Cl)c(C)cc1NC(=O)CCc1c(C)nc2c3cccnc3nn2c1C,100,103
CCN(CCCNC(=O)Cn1ncc2c3ccccc3n(C)c2c1=O)Cc1ccccc1,102,104
Cc1ccc2c(c1)C(c1ccccc1)N(C(=O)Cc1ccc(F)cc1)CC(=O)N2 (stereo not given),105,112
CCc1ccccc1NC(=O)CSc1ncc2c(n1)-c1ccccc1N(C)S2(=O)=O,114,107
Cc1ccc(COc2ccc(-c3cc(C(F)(F)F)n4nc(C)cc4n3)cc2)cc1,106,107
CCOC(=O)c1ccc(NC(=O)c2c(C)nn(-c3ccc(F)cc3)c2-n2cccc2)cc1,108,114
COc1cc(NC(=O)c2nn(-c3ccc(C)cc3)c(=O)c3c2c2ccccc2n3C)cc(OC)c1OC,108,111
CCOC(=O)CC1c2cc(OCC)c(OCC)cc2CCN1C(=O)Nc1cccc(Cl)c1 (stereo not given),113,109
CCN(CC)c1cc(C)c2cc(NC(=O)c3ccccc3OC)ccc2n1,105,108
COc1cccc(NC(=O)CCc2nc3c(C)nn(-c4ccc(C)cc4)c3n(C)c2=O)c1,98,100
CCc1ccc(NC(=O)N2CCN(Cc3nc4ccc(C)cc4o3)CC2)cc1,106,113
CN(C(=O)c1cc2nc(-c3ccco3)cc(C(F)(F)F)n2n1)c1ccc(OC(F)(F)Cl)cc1,97,104
Fc1ccc(Nc2nc3nonc3nc2Nc2cccc(C(F)(F)F)c2)cc1,100,104
CC(CNC(=O)c1ccc2nc(CCc3ccccc3)oc2c1)c1ccccc1 (stereo not given),103,101
CC1CCN(C(=O)c2ccc3c(c2)N(Cc2ccccc2F)C(=O)c2ccccc2S3(=O)=O)CC1,109,111
O=C(Cn1cc(S(=O)(=O)Cc2ccc(F)cc2)c2ccccc21)NCc1ccccc1,105,117
CCc1ccc(CNC(=O)CCn2nc(C)c3c(C)n(-c4ccccc4)nc3c2=O)cc1,103,109
COc1ccc(-c2nc(S(=O)(=O)c3ccc(Cl)cc3)c(NCc3ccccc3)o2)cc1,108,103
O=C(Nc1c2c(nn1-c1ccc(Cl)cc1)CS(=O)(=O)C2)c1cccc(Cl)c1,98,99
CC1CCC(N2CC(=O)N(C3CCCCC3)C(c3ccc(F)cc3)C2=O)CC1 (stereo not given),113,112
CCc1ccc(-n2nc(C)c3c(C)cc(=O)n(CC(=O)Nc4cc(C)ccc4C)c32)cc1,99,107
CCOc1ccc(CC(=O)NCCc2sc(-c3cccc(F)c3)nc2C)cc1,108,113
Fc1ccc(-c2nn(-c3ccc(Cl)cc3)c3c2cnc2ccc(F)cc23)cc1,108,111
CCCOc1ccc(NC(=O)CC2C(=O)N(c3ccc(C)cc3)C(=O)N2Cc2cccc(OC)c2)cc1 (stereo not given),114,117

# Reprinted from the listing, six compounds:
SMILES,PV pol inh,PV pol inh intensity
O=C(Nc1c2c(nn1-c1ccc(Cl)cc1)CS(=O)(=O)C2)c1cccc(Cl)c1,98,99
CC1CCC(N2CC(=O)N(C3CCCCC3)C(c3ccc(F)cc3)C2=O)CC1 (stereo not given),113,112
CCc1ccc(-n2nc(C)c3c(C)cc(=O)n(CC(=O)Nc4cc(C)ccc4C)c32)cc1,99,107
CCOc1ccc(CC(=O)NCCc2sc(-c3cccc(F)c3)nc2C)cc1,108,113
Fc1ccc(-c2nn(-c3ccc(Cl)cc3)c3c2cnc2ccc(F)cc23)cc1,108,111
CCCOc1ccc(NC(=O)CC2C(=O)N(c3ccc(C)cc3)C(=O)N2Cc2cccc(OC)c2)cc1 (stereo not given),114,117

# New compounds follow.
SMILES,PV pol inh,PV pol inh intensity
COc1cccc(-c2ccc3c(N)c(C(=O)c4ccc(Cl)cc4)sc3n2)c1,151,193
COC(=O)CN1C(=O)C(O)(CC(=O)c2ccc(F)cc2)c2ccccc21 (stereo not given),111,113
COc1cccc(NC(=O)c2c(C)oc3nc(C)nc(N4CCCC4)c23)c1,102,105
N#Cc1ccccc1NC(=O)C(=O)NCC(c1cccnc1)N1CCc2ccccc2C1 (stereo not given),115,107
COc1ccc(CNC(=O)Cn2ccc3cc(S(=O)(=O)N4CCCCC4)ccc32)c(OC)c1,104,105
COc1cccc(CNC(=O)c2cnc(N3CCCCC3)c3ccccc23)c1,111,110
CC(=O)c1ccc(NC(=O)c2cc(-c3ccc(C)s3)nc3ccccc23)cc1,106,109
Cc1cccc(OC(=O)c2cc(-c3ccc(Cl)cc3)on2)c1C,106,98
CCOC(=O)c1cc(NC(=O)c2ccccc2)c(=O)n2c1oc1ccc(Cl)cc12,106,104
CCOC(=O)CNC(=O)N1CCCN(S(=O)(=O)c2ccc3c(ccn3CC)c2)CC1,109,111
Cc1ccccc1CNC(=O)c1ccc(Cn2c(SCc3ccccc3)nc3cccnc32)cc1,112,114
CCCOC(=O)c1c(NC(=O)c2cc3nc(-c4ccc(OC)cc4)cc(C(F)(F)F)n3n2)sc2c1CCCC2,103,107
CCc1cccc(CC)c1NC(=O)c1c(C)oc2ccc(O)c(CN3CCN(C)CC3)c12,105,100

# Screening data from PubChem BioAssay.
